# Assay outcomes deposited in PubChem by Southern Research Institute.
# Mtb growth: Mycobacterium tuberculosis H37Rv growth inhibition, putative kinase inhibitor library, confirmatory dose response (AID 2842); M. tuberculosis H37Rv growth inhibition; higher % means a stronger effect; some inactives read as strong as hits; inhibition, % at 10 µg/mL, or IC90 in µg/mL where a hit was titrated; 24,000 compounds, 5.2% hits;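 active = confirmed in a dose series; about a fifth of its hits are not listed in these tables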;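 note: bacteria incubated one week before Alamar blue readout; 0% = bacteria only wells and 100% = bacteria with high antibiotic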
# An asterisk follows results filed as active. A portion of the library; the hit share may differ from the screen's.
no.	mol	Mtb growth
1	O=C1C(Cl)=C(Nc2ccccc2O)C(=O)N1c1ccc(Cl)c(Cl)c1	0.84µg/mL*
2	O=C(CSc1nc2[nH]ncc2c(=O)[nH]1)Nc1ccc(Cl)cc1	0%
3	Cc1ccc(S(=O)(=O)c2cn(CC(=O)Nc3ccccc3C)c3ccccc3c2=O)cc1C	-3%
4	Nc1nc(SCC(=O)Nc2cc(C(F)(F)F)ccc2Cl)[nH]c(=O)c1NC(=O)c1cccs1	-11%
5	O=C(NCCS(=O)(=O)N1CCCC1)c1ccc2c(c1)OCO2	-5%
6	Cc1ccc(NC(=O)CN2C(=O)C3(SCC(=O)N3c3cc(C)cc(C)c3)c3ccccc32)cc1 (stereo not drawn)	12%
7	COc1cc2ccccc2cc1C(=O)Nc1ccc(Cl)cc1C(=O)c1ccccc1	1%
8	O=C1CC(NS(=O)(=O)c2cccnc2)CN1c1ccc(F)cc1 (stereo not drawn)	-4%
9	CC1CC(C)CN(S(=O)(=O)c2ccc(C(=O)Nc3nc(-c4ccc(I)cc4)cs3)cc2)C1 (stereo not drawn)	-2%
10	Cc1ccc(C)c(-c2nnc(NC(=O)COc3ccccc3)o2)c1	2.2µg/mL*
11	COc1ccc2cc(CCNC(=O)c3ccc(Cl)cc3)c(=O)[nH]c2c1	16%
12	CCOc1ccc2cc(-c3nnc(Nc4ccc(OC)cc4)s3)c(=O)oc2c1	-6%
13	O=C(Nc1cc2c3c(c1)CCC(=O)N3CCC2)c1ccc(Cl)cc1	14%
14	Cn1cc(C(=O)Nc2cccc(F)c2)c2nn(-c3ccccc3)c(=O)c-2c1	8%
15	c1ccc2[nH]c(CSSCc3nc4ccccc4[nH]3)nc2c1	4%

# Given as labelled records: part of the list above.
[2] O=C(CSc1nc2[nH]ncc2c(=O)[nH]1)Nc1ccc(Cl)cc1
  Mtb growth: 0%
[8] O=C1CC(NS(=O)(=O)c2cccnc2)CN1c1ccc(F)cc1 (stereo not drawn)
  Mtb growth: -4%
[15] c1ccc2[nH]c(CSSCc3nc4ccccc4[nH]3)nc2c1
  Mtb growth: 4%

# Going on with the list.
no.	mol	Mtb growth
16	N#C/C(=C\c1c[nH]c2ccccc12)C(=O)Nc1cccc(Cl)c1	6%
17	O=C(NCC1CCCO1)NC1CC(=O)N(c2cccc(F)c2)C1 (stereo not drawn)	1%
18	COc1ccc(OC)c2[nH]c(=O)c(CCNC(=O)c3ccccc3I)cc12	-1%
19	Cc1ccc(C(=O)Nc2cccc(-c3ccc4nnc(C)n4n3)c2)cc1C	13µg/mL*
20	O=C(NCC1CCCO1)c1ccc2c(=O)n(Cc3ccc4c(c3)OCO4)c(=S)[nH]c2c1 (stereo not drawn)	-9%
21	COc1cccc(C(c2sc3ncnn3c2O)N2CCC(C)CC2)c1 (stereo not drawn)	2%
22	O=C(NCc1cccnc1)c1cnc2sccn2c1=O	-9%
23	Fc1ccc(-c2nnc(Nc3nc4c(F)cccc4s3)o2)cc1	36%
24	Cc1ccc(Nc2nc(-c3c(C)nc4ncccn34)cs2)cc1	43%
25	NC(=O)c1c(NC(=O)/C=C/c2cccc3ccccc23)sc2c1CCCC2	5%
26	CCOCCn1c(SCC(=O)O)nc2c1c(=O)[nH]c(=O)n2C	1%
27	Cc1ccc(-n2c(SCC(=O)Nc3ccc4c(c3)OCCO4)nc3c(c2=O)SCC3)cc1	7%
28	O=c1oc2ccc(NS(=O)(=O)c3ccc(C4CCCCC4)cc3)cc2s1	10%
29	C=C(C)Cn1c(N/N=C/c2cccc(O)c2)nc2c1c(=O)n(C)c(=O)n2C	-1%
30	C#CCn1cnc2c(nnn2-c2ccc(OC(F)(F)F)cc2)c1=O	-8%

# Ordered by SMILES length (rising): some entries from above
no.	mol	Mtb growth
22	O=C(NCc1cccnc1)c1cnc2sccn2c1=O	-9%
15	c1ccc2[nH]c(CSSCc3nc4ccccc4[nH]3)nc2c1	4%
17	O=C(NCC1CCCO1)NC1CC(=O)N(c2cccc(F)c2)C1 (stereo not drawn)	1%
8	O=C1CC(NS(=O)(=O)c2cccnc2)CN1c1ccc(F)cc1 (stereo not drawn)	-4%
30	C#CCn1cnc2c(nnn2-c2ccc(OC(F)(F)F)cc2)c1=O	-8%
13	O=C(Nc1cc2c3c(c1)CCC(=O)N3CCC2)c1ccc(Cl)cc1	14%
16	N#C/C(=C\c1c[nH]c2ccccc12)C(=O)Nc1cccc(Cl)c1	6%
11	COc1ccc2cc(CCNC(=O)c3ccc(Cl)cc3)c(=O)[nH]c2c1	16%
18	COc1ccc(OC)c2[nH]c(=O)c(CCNC(=O)c3ccccc3I)cc12	-1%
14	Cn1cc(C(=O)Nc2cccc(F)c2)c2nn(-c3ccccc3)c(=O)c-2c1	8%
29	C=C(C)Cn1c(N/N=C/c2cccc(O)c2)nc2c1c(=O)n(C)c(=O)n2C	-1%
27	Cc1ccc(-n2c(SCC(=O)Nc3ccc4c(c3)OCCO4)nc3c(c2=O)SCC3)cc1	7%
20	O=C(NCC1CCCO1)c1ccc2c(=O)n(Cc3ccc4c(c3)OCO4)c(=S)[nH]c2c1 (stereo not drawn)	-9%
9	CC1CC(C)CN(S(=O)(=O)c2ccc(C(=O)Nc3nc(-c4ccc(I)cc4)cs3)cc2)C1 (stereo not drawn)	-2%

# (list continues)
no.	mol	Mtb growth
31	COc1cc2c3nnc(-c4ccc(F)cc4)c-3cn(Cc3ccccc3F)c2cc1OC	33%
32	Cc1cc(OCC(=O)OCCNC(=O)c2cccnc2)cc(C)c1Cl	-1%
33	CCOP(=O)(OCC)c1nc2ccc(Cl)cc2c(Nc2ccc(Cl)cc2)c1Cl	-2%
34	COc1ccc(C)c2sc(=NC(=O)C3COc4ccccc4O3)n(C)c12 (stereo not drawn)	-6%
35	Cc1cc(=O)[nH]c(N/N=C/c2ccc(O)c(O)c2)n1	2%
36	COc1ccc(-c2nnc3ccc(SCC(=O)N4CCCCC4)nn23)cc1	-6%
37	O=c1[nH]c(NCc2ccc3c(c2)OCO3)nnc1Cc1ccc(F)cc1	-1%
38	CC(=O)c1ccc(NC(=O)CSc2ccc3nnc(-c4ccc(F)cc4)n3n2)cc1	7%
39	COC(=O)c1ccc(NC(=O)CSc2ncc(CO)n2Cc2ccc(C)cc2)cc1	10%
40	CCOC(=O)c1[nH]c2ccccc2c1NC(=S)Nc1cc(C)ccc1C	4%
41	CCCSc1nc2c(c(=O)[nH]1)C(c1ccc(C)o1)C1=C(CCCC1=O)N2 (stereo not drawn)	-2%
42	CCCCn1c(SCC(=O)OCC)nc2c1c(=O)[nH]c(=O)n2C	-5%
43	O=C(CNc1nc2ccccc2s1)c1ccc(O)cc1	0%
44	CCOC(=O)c1nn(-c2ccc(OC)cc2)c(=O)c2c(NC(=O)CSCc3ccccc3)scc12	8%
45	COC(=O)c1ccc(CSc2nc(N)c(NC(=O)c3ccco3)c(=O)[nH]2)o1	10%
46	Cc1cc(=O)[nH]c(SCc2cn3cccnc3n2)n1	-11%
47	CCOc1ccc2nc(NC(=O)c3ccc(C(C)(C)C)cc3)sc2c1	0%
48	Cc1ccc2cc(CCNC(=S)Nc3ccc(C(F)(F)F)cc3)c(=O)[nH]c2c1C	-5%
49	Cn1c(=O)c2c(SCc3cccc(C(F)(F)F)c3)nc(-c3ccco3)nc2n(C)c1=O	-6%
50	CC(=O)Nc1ccc(NC(=O)Cn2c(-c3nnc(C)o3)cc3ccccc32)cc1	-2%
51	COc1cccc2cc(C(=O)C3=C(O)C(=O)N(CCCN(C)C)C3c3ccncc3)oc12 (stereo not drawn)	-5%
52	CN(c1ccccc1)n1c(O)c(C2=c3cc(Br)ccc3=NC2=O)sc1=S	-8%
53	CCOC(=O)Nc1c(C(=O)Nc2ccc3c(c2)OCO3)oc2ccccc12	0%
54	CCOc1ccc(C(=O)Nc2c(N)nc(SCc3cccc4ccccc34)[nH]c2=O)cc1	2%
55	CCOC(=O)c1nn(-c2ccc(F)cc2)c(=O)c2c(NC(=O)c3cccc(Br)c3)scc12	-17%
56	COCCSc1nc2c(c(=O)[nH]c(=O)n2C)n1Cc1cccc(C)c1	5%
57	COc1ccc(Cl)cc1-n1c(-c2ccccc2)cn2c3c(=O)n(C(C)C(C)=O)c(=O)n(C)c3nc12 (stereo not drawn)	0%
58	COC(=O)/C=C/c1ccccc1OC(=O)c1cc([N+](=O)[O-])cc([N+](=O)[O-])c1	3%
59	O=C1NC(=O)C2C1C(c1ccc(Cl)cc1)NN2Cc1ccccc1 (stereo not drawn)	-6%
60	Nc1nc(SCC(=O)Nc2ccccc2F)[nH]c(=O)c1NC(=O)c1cccs1	-15%
61	CCOC(=O)Nc1c(C(=O)Nc2ccc(C)c(C)c2)oc2ccccc12	5%
62	COc1ccc(CCNC(=O)CSc2nc3[nH]ncc3c(=O)[nH]2)cc1OC	-7%
63	CC(C)Cc1nc(C(N)=O)c2[nH]c(=O)n(-c3ccc(F)cc3)c2n1	24%
64	O=C(CC1CCS(=O)(=O)C1)Nc1nnc(C2CCCCC2)s1 (stereo not drawn)	-9%
65	NNC1CS(=O)(=O)CC1O (stereo not drawn)	-8%
66	COC(=O)c1ccc(CSc2nc(-c3cccs3)nc3c2c(=O)n(C)c(=O)n3C)o1	-3%
67	CC1(C)CC(=O)C2=C(C1)OC(N)=C(C#N)C2c1ccco1 (stereo not drawn)	-1%
68	Cc1cn2c3c(=O)n(CC(=O)OCc4ccccc4)c(=O)n(C)c3nc2n1-c1ccc(F)cc1	6%
69	O=C(CCN1C(=O)c2ccccc2S1(=O)=O)Nc1cccc([N+](=O)[O-])c1	-5%
70	COc1cc2ccccc2cc1C(=O)Nc1nc2ccc3nc(SC)sc3c2s1	8%
71	O=C(CSc1nnc2ccc(-c3ccco3)nn12)c1ccccc1	-3%
72	CCS(=O)(=O)c1cccc(C(=O)Nc2nc3c(s2)CSc2ccccc2-3)c1	-2%
73	Nn1c(SCc2ccc(Cl)cc2Cl)nnc1-c1ccccc1Cl	14%
74	COc1ccc2nc(N(CCCn3ccnc3)C(=O)Cc3ccc(F)cc3)sc2c1	5.6µg/mL*
75	Cc1cnnn1-c1ccc(C(=O)Nc2ccc(Cl)cc2)cc1	11%
76	CCS(=O)(=O)c1cccc(C(=O)Nc2nc3ccc(S(C)(=O)=O)cc3s2)c1	0%
77	Cc1ccc(OCC(=O)Nc2ccc3c(c2)NC(=O)C(C)(C)CO3)cc1	-1%
78	Cc1nnc(NC(=O)CSc2ncnc3c2cnn3-c2cccc(Cl)c2)s1	-9%
79	O=C(CSc1ccc2nnc(-c3ccc(Cl)cc3)n2n1)NCc1ccc2c(c1)OCO2	-6%
80	CCc1ccc(-c2nc(C(N)=O)c3[nH]c(=O)n(-c4ccc(C(C)(C)C)cc4)c3n2)cc1	-10%
81	CCOC(=O)c1nn(-c2ccccc2)c(=O)c2c(NC(=O)/C=C/c3cc(OC)c(OC)c(OC)c3)scc12	1%
82	NC1=NC(=O)C(CC(=O)NC2CCCCC2)S1 (stereo not drawn)	-4%
83	COc1ccc(C(=O)Nc2nnc(-c3cc(Cl)ccc3Cl)o2)cc1	77%
84	CCCCn1c(=S)[nH]c2c1c(=O)[nH]c(=O)n2C	10%
85	CCOc1ccccc1NC(=O)c1oc2ccccc2c1NC(=O)CC(C)(C)C	-6%
86	Fc1ccc2nc(Nc3ccccc3)sc2c1	17%
87	Cc1ccc(NC(=O)CSc2nc3c(c(=O)n2-c2ccc(Br)cc2)SCC3)cc1	2%
88	Cc1nn2c(C(=O)NCc3ccccc3)c(C(=O)Nc3ccc(F)cc3)sc2nc1=O	-7%
89	CC1(C)CC(=O)c2sc(NC(=O)c3ccc(-c4nc5ccccc5s4)s3)nc2C1	1%
90	Cn1c2ccccc2n2c3nc(C#N)c(C#N)nc3c(C#N)c12	-6%

# Additional entries follow.
no.	mol	Mtb growth
91	O=C(O)CCN1C(=O)C2C3CC(C2C1=O)C1C(c2ccc(O)cc2)c2sc(=O)[nH]c2SC31 (stereo not drawn)	-13%
92	COc1ccc(-n2ccn(CC(=O)Nc3ccc(F)cc3)c(=O)c2=O)cc1Cl	-7%
93	COc1ccc(C(=O)Nc2c(N)nc(SCC(=O)NC3CCCC3)[nH]c2=O)cc1	-6%
94	COC(=O)CSC(C)C(=O)Nc1nnc(-c2ccc(Cl)cc2)s1 (stereo not drawn)	-3%
95	O=C(N/N=C/c1cc([N+](=O)[O-])ccc1O)c1ccc([N+](=O)[O-])cc1	5%
96	O=C1C(Cl)=C(Nc2ccc(O)cc2)C(=O)N1Cc1ccccc1	7%
97	Cc1ccc(-n2c(C)cn3c4c(=O)[nH]c(=O)n(C)c4nc23)c(C)c1	-10%
98	CCSc1nc2c(c(=O)[nH]c(=O)n2C)n1Cc1ccc(Cl)cc1	19%
99	O=C(CN1C(=O)c2ccccc2C1=O)Nc1nc2c(s1)CSc1ccccc1-2	-13%
100	COc1ccc2nc(Nc3nc4ccc(Cl)cc4s3)sc2c1	70%
